Screens (PubChem)
rRNA inh HTS = inhibits bacterial ribosomal RNA function over humanized ribosomes. E. coli WT GFP vs humanized-ribosome RFP mutants, fluorescence, 24 h; active compounds read low; DMSO median 0, no signal -100. GFP signal change (wild-type ribosome), % (no concentration beside the values). 1.6% of 350,000 active. AID 720706;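 active means significant combined selectivity score with lowered wild-type GFP, culture density cut under 30%, mutant RFP and density less affected; inactive means any of these conditions unmet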; further: one replicate is shown; some compounds called inactive have numbers as strong as hits
rRNA inh HTS OD600 = also measured in rRNA inh HTS; calls as there; OD600 change, %; measured here: OD600 growth;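 optical density of the mix in the first replicate; 0 = DMSO median and -100 = no signal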
rRNA inh HTS RFP = also measured in rRNA inh HTS; calls as there; RFP signal change, %; measured here: RFP humanized mutant strains;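 first replicate; 0 = DMSO median and -100 = no signal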
* hit, by the source's call. A portion of the library; the hit share may differ from the screen's.

rRNA inh HTS,rRNA inh HTS OD600,rRNA inh HTS RFP,molecule
-10,-8,3.0,COC(=O)[C@]12CCCCC=C1N(Cc1ccco1)C(=O)[C@H](CC(=O)NCc1cccc3ccccc13)C2
1,6,-0.9,Cc1noc(C)c1NC(=O)N(C)C[C@H]1OCCCC[C@@H](C)Oc2ccc(NC(=O)CCC(F)(F)F)cc2C(=O)N([C@H](C)CO)C[C@H]1C
-1,1,-1.0,CO[C@@H]1CN(C)C(=O)c2ccc(NC(=O)C3CC3)cc2OC[C@@H](C)N(C(=O)c2ccccc2F)C[C@@H]1C
2,1,-0.6,CCN(C[C@@H]1N[C@@H](CO)[C@H]1c1ccc(-c2ccccc2)cc1)C(=O)COC
18,4,7.3,O=C1C2C3CC4C5C3C1C5C1(SCCS1)C42 (stereo unspecified)
6,15,0.4,O=Cc1cccc(OCc2cn(CC(=O)c3ccc(O)cc3)nn2)c1
2,-2,-0.2,C[C@H]1CCCCO[C@H](CN(C)C(=O)NC2CCCCC2)[C@@H](C)CN([C@@H](C)CO)C(=O)c2cc(NC(=O)Nc3ccc(F)cc3)ccc2O1
0,4,1.2,O=C(N[C@@H]1CC[C@@H](CC(=O)N2CCC(Cc3ccccc3)CC2)O[C@H]1CO)c1cnccn1
-8,-6,-1.8,C[C@@H]1CN([C@@H](C)CO)C(=O)CCCn2cc(nn2)CO[C@@H]1CN(C)Cc1ccc(C(F)(F)F)cc1
2,-2,4.1,COCC(=O)Nc1ccc2c(c1)C(=O)N(C)C[C@@H](OC)[C@@H](C)CN(Cc1ccccc1)[C@H](C)CO2
2,13,-1.9,C[C@H](CO)N1C[C@H](C)[C@@H](CN(C)C(=O)Nc2ccccc2)Oc2ccc(NC(=O)Nc3ccccc3)cc2CC1=O
0,0,1.7,Cc1noc(C)c1S(=O)(=O)N(C)C[C@H]1OCCCC[C@H](C)Oc2ccc(NC(=O)NC3CCCCC3)cc2C(=O)N([C@@H](C)CO)C[C@@H]1C

Further entries.
rRNA inh HTS,rRNA inh HTS OD600,rRNA inh HTS RFP,molecule
-1,0,1.0,C[C@@H]1CN([C@@H](C)CO)C(=O)c2cc(-c3cccc(F)c3)cnc2O[C@H]1CN(C)Cc1cncnc1
-1,-4,-1.2,C[C@H](CO)N1C[C@H](C)[C@@H](CN(C)S(C)(=O)=O)Oc2c(NC(=O)CCCN(C)C)cccc2C1=O
-3,1,0.0,C[C@@H]1CN([C@H](C)CO)S(=O)(=O)c2ccc(-c3cccnc3)cc2O[C@@H]1CN(C)C(=O)c1ccc2c(c1)OCO2
-1,-10,1.2,Cc1ccc(S(=O)(=O)Nc2ccc3c(c2)C(=O)N([C@@H](C)CO)C[C@@H](C)[C@@H](CN(C)S(=O)(=O)c2cccs2)O3)cc1
-1,-5,-0.2,C[C@@H]1CN([C@H](C)CO)C(=O)Cc2cc(NC(=O)C3CCCCC3)ccc2O[C@@H]1CN(C)S(=O)(=O)c1ccc(Cl)cc1
-32,-54,34,Cc1ccccc1-c1ccc2c(c1)O[C@@H](CN(C)Cc1ccncc1)[C@H](C)CN([C@@H](C)CO)S2(=O)=O
0,0,0.2,COc1ccc(S(=O)(=O)Nc2cccc3c2O[C@@H](CN(C)S(=O)(=O)c2ccc(Cl)cc2)[C@@H](C)CN([C@@H](C)CO)C3=O)cc1
7,10,-0.6,Cc1ccc(S(=O)(=O)N(C)C[C@@H]2Oc3ccc(NC(=O)CCN4CCOCC4)cc3C(=O)N([C@@H](C)CO)C[C@@H]2C)cc1
1,2,1.5,CN1C=CC(C(C(N)=O)c2ccccc2)c2ccccc21 (stereo unspecified)
2,-8,1.1,C[C@H]1CN([C@@H](C)CO)C(=O)c2cc(NC(=O)Cn3cnnn3)ccc2O[C@@H]1CN(C)Cc1ccc(Oc2ccccc2)cc1
-43,-65,-2.9,O=C(c1ccccc1)N1CC[C@@H]2[C@H](CO)Nc3ccc(-c4ccccc4F)cc3[C@@H]21
-2,-12,5.4,Cn1cnc(S(=O)(=O)N2CCCCN3[C@H](C2)[C@@H](c2ccc(-c4ccccc4)cc2)[C@@H]3CO)c1

(cont.)
rRNA inh HTS,rRNA inh HTS OD600,rRNA inh HTS RFP,molecule
7,3,3.5,CN(C)CC(=O)Nc1ccc2c(c1)[C@H]1C[C@@H](CC(=O)N3CCCCC3)O[C@H](CO)[C@H]1O2
2,-2,-2.0,O=C(NC[C@@H]1[C@@H](c2ccccc2)[C@@H](CO)N1Cc1ccccn1)C1CC1
2,-3,-1.2,C[C@H](CO)N1C[C@H](C)[C@H](CN(C)Cc2ccc3c(c2)OCO3)Oc2ccc(NS(=O)(=O)c3cn(C)cn3)cc2C1=O
-3,-16,9.3,CCCC(=O)N1CCC2(CC1)CN(C(=O)Nc1cccc(F)c1)[C@H](CO)c1c2c2ccc(OC)cc2n1C
-1,4,1.0,CCCN(C)C[C@H]1OCCCC[C@@H](C)Oc2ccc(NC(=O)NC3CCCCC3)cc2C(=O)N([C@@H](C)CO)C[C@H]1C
-2,0,-0.3,COCc1cn(CC[C@H]2CC[C@@H](NC(=O)Nc3ccc4c(c3)OCO4)[C@@H](CO)O2)nn1
4,2,-1.2,O=C(Nc1ccc2c(c1)[C@H]1C[C@H](CC(=O)N3CCOCC3)O[C@H](CO)[C@H]1O2)C1CCC1
31,9,59,O=C(Nc1ccc2c(c1)OCCO2)C(CCc1ccccc1)N1CCC(Cc2ccccc2)CC1 (stereo unspecified)
-1,-1,0.9,COC(=O)C[C@H]1CC[C@@H]2[C@H](COc3ccc(NS(=O)(=O)c4cccc(F)c4)cc3C(=O)N2C)O1
1,-2,11,C[C@@H]1CN([C@H](C)CO)C(=O)Cc2cc(NC(=O)Cc3cn(C)c4ccccc34)ccc2O[C@H]1CN(C)Cc1ccccc1
-5,2,-4.6,Cc1noc(C)c1S(=O)(=O)N(C)C[C@@H]1OCCCC[C@@H](C)Oc2ccc(NC(=O)Nc3ccc(C(F)(F)F)cc3)cc2C(=O)N([C@H](C)CO)C[C@H]1C
4,3,-1.0,CCCc1cn(CC[C@H]2CC[C@H](NC(=O)Cc3cccnc3)[C@H](CO)O2)nn1

One compound at a time, as listed above. Order of screens: rRNA inh HTS, rRNA inh HTS OD600, rRNA inh HTS RFP
O=C(Nc1ccc2c(c1)[C@H]1C[C@H](CC(=O)N3CCOCC3)O[C@H](CO)[C@H]1O2)C1CCC1 is entered as 4, 2, -1.2
Cc1ccc(S(=O)(=O)N(C)C[C@@H]2Oc3ccc(NC(=O)CCN4CCOCC4)cc3C(=O)N([C@@H](C)CO)C[C@@H]2C)cc1 is entered as 7, 10, -0.6
C[C@@H]1CN([C@H](C)CO)C(=O)Cc2cc(NC(=O)Cc3cn(C)c4ccccc34)ccc2O[C@H]1CN(C)Cc1ccccc1 is entered as 1, -2, 11
C[C@H](CO)N1C[C@H](C)[C@@H](CN(C)S(C)(=O)=O)Oc2c(NC(=O)CCCN(C)C)cccc2C1=O is entered as -1, -4, -1.2
Cn1cnc(S(=O)(=O)N2CCCCN3[C@H](C2)[C@@H](c2ccc(-c4ccccc4)cc2)[C@@H]3CO)c1 is entered as -2, -12, 5.4

(continued)
rRNA inh HTS,rRNA inh HTS OD600,rRNA inh HTS RFP,molecule
-2,-2,-3.0,CC(C)N(c1ccccc1)c1ccc(NC(=O)[C@@H]2O[C@H](CO)[C@H](O)[C@H](O)[C@H]2O)cc1
-7,-10,-0.6,Cn1cc(Cc2ccc(C(=O)N3CCN(Cc4ccccc4)CC3)cn2)c2ccccc21
1,1,0.8,C[C@@H]1CN([C@H](C)CO)C(=O)c2cc(NC(=O)C3CC3)ccc2O[C@@H]1CN(C)Cc1ccccc1
4,11,-2.2,COc1ccccc1NC(=O)N1C[C@H]2[C@@H](c3ccccc31)[C@@H](CO)N2C(C)=O
0,5,1.6,CNC[C@@H]1Oc2ccc(NS(C)(=O)=O)cc2C(=O)N([C@H](C)CO)C[C@H]1C
0,-1,0.5,C[C@@H]1CCCCO[C@H](CN(C)C(=O)c2ccncc2)[C@@H](C)CN([C@H](C)CO)C(=O)c2cc(NC(=O)c3ccccc3)ccc2O1
3,9,-1.0,COc1ccc(NC(=O)Nc2ccc3c(c2)CC(=O)N([C@@H](C)CO)C[C@@H](C)[C@@H](CN(C)S(=O)(=O)c2cn(C)cn2)O3)cc1
-1,2,-1.6,C[C@@H]1CN([C@@H](C)CO)C(=O)Cc2cc(NS(=O)(=O)c3cccs3)ccc2O[C@@H]1CN(C)Cc1ccc(Cl)c(Cl)c1
-3,-6,-0.6,CC(C)CC#Cc1ccc([C@@H]2[C@H](CO)N3C(=O)CN(C(=O)c4ccccn4)C[C@@H]23)cc1
-2,3,-0.2,C[C@@H]1CN([C@H](C)CO)C(=O)c2cc(C#C[C@@H](C)O)cnc2O[C@@H]1CN(C)C(=O)CN1CCOCC1
0,-5,1.6,CCCCCCCCN1C(=O)[C@H](CC(=O)NCCCN2CCCC2=O)C[C@@]2(C(=O)OC)CC(C)(C)CC=C12
5,10,-1.7,CN(C)CCCNC(=O)C[C@@H]1CC[C@H](NC(=O)c2ccccc2F)[C@@H](CO)O1

Entries shown so far with a thiophene ring, fused or not (2):
rRNA inh HTS,rRNA inh HTS OD600,rRNA inh HTS RFP,molecule
-1,-10,1.2,Cc1ccc(S(=O)(=O)Nc2ccc3c(c2)C(=O)N([C@@H](C)CO)C[C@@H](C)[C@@H](CN(C)S(=O)(=O)c2cccs2)O3)cc1
-1,2,-1.6,C[C@@H]1CN([C@@H](C)CO)C(=O)Cc2cc(NS(=O)(=O)c3cccs3)ccc2O[C@@H]1CN(C)Cc1ccc(Cl)c(Cl)c1

Following part.
rRNA inh HTS,rRNA inh HTS OD600,rRNA inh HTS RFP,molecule
7,9,-5.4,C[C@H]1CN([C@@H](C)CO)C(=O)c2cc(NC(=O)Nc3ccccc3)ccc2O[C@@H]1CN(C)C(=O)Nc1ccc2c(c1)OCO2
-2,-13,3.6,CCCC(=O)Nc1ccc2c(c1)OC[C@@H](C)N(Cc1ccccc1F)C[C@H](C)[C@@H](OC)CN(C)C2=O
1,4,-0.4,CO[C@@H]1CN(C)C(=O)c2cc(NS(=O)(=O)CC(F)(F)F)ccc2OC[C@H](C)N(C(=O)c2ccc3c(c2)OCO3)C[C@H]1C
-5,-9,-5.5,O=C(NCC[C@H]1CC[C@H](NS(=O)(=O)c2ccccc2)[C@@H](CO)O1)c1ccc2c(c1)OCO2
-2,4,0.3,COc1ccc2c3c(n(C)c2c1)[C@H](CO)N(C(=O)C1CCCC1)CC31CN(C(=O)CC2CC2)C1
-3,0,-2.6,C[C@@H]1CN([C@H](C)CO)C(=O)c2cc(NC(=O)Nc3ccc(F)cc3)ccc2O[C@H]1CN(C)S(=O)(=O)c1ccccc1
4,5,0.3,C[C@@H]1CCCCO[C@@H](CN(C)C)[C@H](C)CN([C@H](C)CO)C(=O)c2cc(NS(C)(=O)=O)ccc2O1
3,-3,5.3,C[C@@H]1CN([C@H](C)CO)C(=O)c2cccc(NC(=O)Nc3ccc(C(F)(F)F)cc3)c2O[C@@H]1CN(C)Cc1ccc(Cl)c(Cl)c1
1,7,-2.4,Cc1ccc(S(=O)(=O)N(C)C[C@@H]2OCCCC[C@@H](C)Oc3ccc(NC(=O)CCCN(C)C)cc3C(=O)N([C@H](C)CO)C[C@@H]2C)cc1
0,0,0.1,O=C(C1CCCC1)N1CC2(C1)[C@@H](c1ccccc1)[C@H](CO)N2C(=O)NC1CCCC1
-9,-11,3.9,CCOC(=O)[C@]12CCCC=C1N(Cc1ccccc1)C(=O)[C@H](CC(=O)NCc1cccc(C(F)(F)F)c1)C2
-4,-5,-1.8,O=C(C1CCOCC1)N1C[C@H]2[C@@H](c3ccccc31)[C@H](CO)N2Cc1ccccc1Cl

Remaining list, next part:
rRNA inh HTS,rRNA inh HTS OD600,rRNA inh HTS RFP,molecule
14,18,0.3,CC(C)CC(=O)Nc1nnc(SCC(=O)NC2CCCC2)s1
-2,-13,4.5,O=C(C[C@@H]1C[C@H]2c3cc(NC(=O)c4ccc5c(c4)OCO5)ccc3O[C@H]2[C@H](CO)O1)NCc1ccccn1
2,9,-2.1,COc1ccc(NC(=O)N(C)C[C@H]2OCc3ccccc3-c3ccccc3C(=O)N([C@H](C)CO)C[C@@H]2C)cc1
-2,-7,-0.3,COc1ccc(NC(=O)Nc2ccc3c(c2)C(=O)N([C@H](C)CO)C[C@H](C)[C@H](CN(C)S(=O)(=O)c2cccs2)O3)cc1
5,9,2.2,COCC(=O)N1CC2(C1)CN(C(=O)c1ccccn1)[C@@H](CO)c1c2c2ccc(OC)cc2n1C
0,-3,2.2,Cc1ccc(S(=O)(=O)Nc2ccc3c(c2)C(=O)N([C@@H](C)CO)C[C@H](C)[C@@H](CN(C)S(=O)(=O)c2ccc(F)cc2)O3)cc1
0,2,1.1,CCCN(C)C[C@H]1OCCCC[C@@H](C)Oc2ccc(NS(=O)(=O)c3ccc(OC)cc3)cc2C(=O)N([C@@H](C)CO)C[C@H]1C
-1,3,2.1,C[C@H]1CN([C@@H](C)CO)C(=O)c2cc(NC(=O)Nc3ccccc3)ccc2O[C@H]1CN(C)C(=O)Nc1cccc2ccccc12
-5,6,2.9,C[C@@H]1CN([C@@H](C)CO)C(=O)c2cc(-c3ccc(F)cc3)cnc2O[C@@H]1CN(C)C(=O)Nc1ccc(F)cc1
0,3,0.1,O=C(C[C@@H]1C=C[C@H](NC(=O)C2CCOCC2)[C@H](CO)O1)Nc1ccccc1
1,4,-3.1,CCC(=O)N1[C@H](CN(C)C(C)=O)[C@@H](c2ccc(-c3cccnc3)cc2)[C@@H]1CO
4,6,-0.9,C[C@H]1CN([C@@H](C)CO)C(=O)Cc2cc(NS(=O)(=O)c3ccc(F)cc3)ccc2O[C@H]1CN(C)CC1CC1
2,2,-1.4,CCCNC(=O)Nc1ccc2c(c1)OC[C@H](C)N(Cc1cccnc1)C[C@H](C)[C@H](OC)CN(C)C2=O
6,12,-0.2,C[C@@H]1CN([C@@H](C)CO)S(=O)(=O)c2ccc(C3=CCCCC3)cc2O[C@H]1CN(C)C(=O)CN(C)C
-1,-1,-8.9,O=C1[C@H](c2ccccc2)[C@@H](c2ccncc2)N1c1ccncc1
